High-throughput results from PubChem.
Lassa entry inh – qHTS for Inhibitors of binding or entry into cells for Lassa Virus. AID 540256, 2011. 300,000 compounds, 1.2% hits. Lassa virus pseudotype entry inhibition, cell reporter; control for the full effect not named in the record. Potency, µM (top dose mostly 37.9 µM), without a hit: at the top dose activity change, negative = inhibition, usual class: inhibitors; active means well fitted inhibition curve with a large enough effect; inconclusive means small, poorly fitted or top-dose-only effect, or effect the other way; inactive means flat fitted curve, though single readings scatter; tested in HEK293 cells; further: on the % scale 0 is the no-effect control and ±100 the full control effect; nearly all actives have a fitted effect of over 50% in size; luciferase read-out
Cruzain Triton – qHTS Assay for Promiscuous and Specific Inhibitors of Cruzain (with detergent) | Cruzipain (Trypanosoma cruzi), P25779 | purified cruzain, Z-FR-AMC fluorescence, 0.01% Triton | Potency, µM, inactives show max response, negative = inhibition, most hits filed as inhibitors | 200,000 compounds, 0.43% hits;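 further: plate controls were neutral wells for no effect and buffer without enzyme for full effect; nearly all actives have a fitted effect of over 40% in size; top concentration of the series not given in the record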
Target sequence (P25779 123-467 limits assumed): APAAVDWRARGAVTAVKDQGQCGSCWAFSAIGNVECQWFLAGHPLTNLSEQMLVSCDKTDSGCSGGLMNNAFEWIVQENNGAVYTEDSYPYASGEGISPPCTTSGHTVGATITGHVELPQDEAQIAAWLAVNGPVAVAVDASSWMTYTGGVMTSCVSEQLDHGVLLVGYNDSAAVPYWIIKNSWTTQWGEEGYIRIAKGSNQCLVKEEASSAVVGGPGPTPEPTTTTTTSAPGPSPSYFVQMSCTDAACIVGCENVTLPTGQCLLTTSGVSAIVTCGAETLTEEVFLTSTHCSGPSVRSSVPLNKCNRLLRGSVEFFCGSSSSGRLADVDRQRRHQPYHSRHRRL
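Purified cruzain (1.5 nM final) was preincubated with compounds for 15 min at room temperature in 100 mM sodium acetate pH 5.5, 5 mM DTT, 0.01% Triton X-100. Reaction started with 2 uM Z-FR-AMC; AMC fluorescence change over 60 s gave activity.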
Cruzain inh noDet – qHTS Assay for Promiscuous and Specific Inhibitors of Cruzain (without detergent). Cruzipain (Trypanosoma cruzi), P25779. purified cruzain, Z-FR-AMC fluorescence, no detergent. Potency, µM, for inactives: max response, negative = inhibition, most hits filed as inhibitors. 200,000 compounds, 2.3% hits. AID 1476, 2009;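 further: plate controls were enzyme without inhibitor for no effect and buffer without enzyme for full effect; nearly all actives have a fitted effect of over 40% in size; top concentration of the series not given in the record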
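Detergent-free condition (0.00005% Triton X-100) in acetate buffer pH 5.5 with DTT. 1.5 nM enzyme and compound were pre-mixed 15 min, then 2 uM Z-FR-AMC substrate added; reaction progress from fluorescence change between first and third reads (60 s).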
SARS PLP yeast – qHTS of Yeast-based Assay for SARS-CoV PLP; 330,000 compounds, 0.19% hits; Potency, µM (top dose mostly 32.9 µM), inactives show top-dose activity, positive = growth rescue; S. cerevisiae expressing SARS-CoV PLpro, growth rescue; control for the full effect not named in the record; active means well fitted rising curve with a large enough effect; inconclusive means small, poorly fitted or top-dose-only effect; inactive means no such curve, though single readings can be large or run the other way; further: 0% is about no effect; nearly all actives have a fitted effect of over 55% in size; growth read by luminescence after 48 h
MARV entry inh – qHTS for inhibitors of binding or entry into cells for Marburg Virus; Marburg virus pseudotyped entry inhibition, cell reporter; control for the full effect not named in the record; about a third of the inactives were read at about 46 µM; Potency, µM (highest dose often 37.8 µM), without a hit: at the highest dose activity change, negative = inhibition, hits mostly inhibitors; 300,000 compounds, 1.8% hits; active = well fitted inhibition curve with a large enough effect; inconclusive = small, poorly fitted or top-dose-only effect, or effect the other way; inactive = flat fitted curve, though single readings scatter; tested in HEK293 cells; about a fifth of its hits are not listed in these tables; further: on the % scale 0 is the no-effect control and ±100 the full control effect; luciferase read-out
StopGo reporter – High Throughput Screening for Foot and Mouth Disease Virus Antivirals; human cells with a luciferase reporter of 2A StopGo recoding; control for the full effect not named in the record; Potency, µM (series often up to 57.9 µM), inactives show top-dose signal change, negative = less light; 410,000 compounds, 1.2% hits; active = well fitted falling curve with a large enough effect; inconclusive = small, poorly fitted or top-dose-only effect; inactive = no such curve, though single readings can be large or run the other way; tested in HEK293T cells; further: on the % scale 0 is the no-effect control and ±100 the full control effect; nearly all actives have a fitted effect of over 45% in size; luciferase light after 4 h
RE007 growth inh – qHTS Assay for Inhibitors of the HIV-1 protein Vpr | S. pombe RE007 Vpr strain, BacTiter-Glo ATP luminescence, 24 h; control for the full effect not named in the record | Potency, µM (series often up to 92.2 µM), for the others: at the top dose activity change, negative = less growth | 360,000 compounds, 0.21% hits | AID 651644, 2012; active = well fitted falling curve with a large enough effect; inconclusive = small, poorly fitted or top-dose-only effect; inactive = no such curve, though single readings can be large or run the other way;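 further: on the % scale 0 is the no-effect control and ±100 the full control effect; nearly all actives have a fitted effect of over 50% in size; the assay follows cell death caused by Vpr and the record does not say whether a fall means rescue or toxicity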
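Fission yeast strain RE007, carrying one chromosomally integrated HIV-1 vpr copy, was seeded at OD 0.01 in PMG+AL medium with 23 nL pinned compound. After 24 h at 30 °C and 99% humidity, viability was read by BacTiter-Glo luminescence.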
NS1 inh – qHTS Assay for Inhibitors of Influenza NS1 Protein Function; S. cerevisiae slowed by influenza A NS1, growth recovery by OD600; 270,000 compounds, 0.4% hits; Potency, µM (series often up to 46.1 µM), for the others: at the highest dose activity, positive = more growth; AID 2326, 2010; active means well fitted rising curve with a large enough effect; inconclusive means small, poorly fitted or top-dose-only effect; inactive means no such curve, though single readings can be large or run the other way; further: nearly all actives have a fitted effect of over 50% in size
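Recovery from NS1-induced slow growth read by OD600 in budding yeast switched to galactose assay medium (pH 6.0, -URA) at 1:100 dilution. Compound 23 nl per well; the matching strain lacking NS1 serves as control.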
The depositor's hits bear a star; ? = inconclusive; . = no result given; [ ] = remark or other dose. Unless noted, the call rests on the fitted dose curve; in most records, active means well fitted curve in the direction sought with a large enough effect; inconclusive means small, poorly fitted or top-dose-only effect, or another doubt; inactive means no such curve, though single readings can be large; an effect the other way counts as inactive or inconclusive. Potency means the concentration at half of the fitted maximal effect.

compound	Cruzain Triton	NS1 inh	Cruzain inh noDet	MARV entry inh	SARS PLP yeast	StopGo reporter	RE007 growth inh	Lassa entry inh
COc1cc(Nc2ncc3c(n2)CCN(Cc2ccc(OC(C)C)c(OC)c2)C3)cc(OC)c1	-5.7%	.	-1%	.	.	-15%	.	16%[46.1 µM]
CS(=O)(=O)N(CC(=O)Nc1ccc2c(c1)OCCO2)Cc1ccccc1	1.4%	-12%	0%	4%	-3%	4%	-6%	-2%
O=Cc1sc([O-])nc1-[n+]1ccc2ccccc2c1	.	7%	.	-1%	-1%	-4%	-4%	-1%
COc1ccc(NC(=O)CCCNC(=O)c2ccc(Cl)cc2)c(OC)c1	.	15%	.	4%	-3%	15%	-4%	17%
Cc1nc2c(C(=O)NCCCN(CC(C)C)CC(C)C)cnn2c(C)c1Cc1c(F)cccc1Cl	0.2%	.	6%	.	.	-5%	.	25%[46.1 µM]
COc1ccccc1NC(=O)c1cnc2c(-c3ccccc3)c(C)nn2c1C	.	0%	.	7%[46.1 µM]	-4%	?	-2%	2%
COc1ccc(/C(N)=N/OC(=O)CSc2ccc(C)cc2)cc1	-0.9%	-71%	-4%	12%	1%	23%	-4%	-17%
COc1ccc(CCC(=O)NCc2nc3cccnc3n2Cc2ccc(F)cc2)cc1	-1.6%	.	-3%	.	.	-3%	.	9%[46.1 µM]
O=S1(=O)CCN(Cc2ccc(Cl)c(C(F)(F)F)c2)CC1	.	5%	.	-20%[46.1 µM]	1%	-23%	-4%	-16%
O=c1c2cccnc2n(Cc2ccccc2F)c(=O)n1Cc1ccccc1Cl	-1.0%	.	-6%	8%[46.1 µM]	.	1%	.	.
CC(=O)c1cccc(NC(=O)C2CC(=O)N(c3cccc(C)c3C)C2)c1 (stereo not given)	0.1%	-7%	5%	-10%	14%	10%	19%	-4%
CC(C)Cn1c(CCCNC(=O)c2ccc(F)cc2)nc2ccccc21	-2.8%	0%	-1%	.	-8%	-1%	-3%	.
COc1ccc(CCNC(=O)CCOc2ccc(C)cc2)cc1OC	.	10%	.	.	3%	-14%	-12%	.
O=C1NC(=O)[C@@H]2C3c4ccccc4C=CN3[C@H](C(=O)c3cccs3)[C@H]12 (stereo not given in full)	1.5%	-26%	-27%	.	-6%	.	.	.
Cn1ccnc1C(O)(c1ccccc1)c1nccn1C	.	-2%	.	15%[46.1 µM]	0%	-7%	24%	7%[46.1 µM]
Cc1ccc(CNC(=O)c2nnc(CS(=O)(=O)c3ccccc3)o2)cc1	.	-5%	.	.	-2%	-2%	6%	.
CC(C)CCNC(=O)CSc1nc2ccccc2c(=O)[nH]1	-2.6%	2%	8%	-10%	-4%	20%	15%	-1%
CCC(CC)c1nnc(NC(=O)c2ccc(N3CCCCC3)c([N+](=O)[O-])c2)s1	-5.0%	17%	0%	?	-2%	-27%	-2%	?
COc1cccc(NC(=O)CC2C(=O)NCCN2C(=S)Nc2ccc(F)cc2)c1 (stereo not given)	.	.	.	?	0%	-15%	-18%	0%
CCOc1ccccc1-c1nc(SCC(=O)O)n[nH]1	2.5%	-6%	?	8%	3%	-15%	11%	21%
Cc1c(OCC(=O)N(C)C)ccc2c3c(c(=O)oc12)CCCCC3	.	-3%	.	.	0%	-2%	-16%	.
O=c1cc(O)c(-c2cccc(Cl)c2)c(Cl)[nH]1	1.6%	5%	3%	6%[46.1 µM]	-3%	-3%	27%	3%
C/C(=N\Nc1ccc(C#N)cc1[N+](=O)[O-])c1ccc(C)o1	.	-3%	.	10%[46.1 µM]	1%	-9%	2%	12%
COC(=O)c1c(C#N)c(N)nc2c1CCCC2	-13%	?	3%	8%	-1%	0%	-2%	4%
Cn1c(=NC(=O)CSCC(=O)N2CCOCC2)sc2ccccc21	0.6%	-5%	2%	25%	-8%	0%	7%	1%
CNC(=S)Nc1cc(C(F)(F)F)ccc1Cl	1.6%	7%	-9%	13%	-1%	-14%	0%	-3%
CC(C)CCOCC(=O)Oc1ccccc1C(=O)O	0.8%	4%	0%	-3%	0%	-13%	26%	7%
CCN1CCN(S(=O)(=O)c2ccc(C(=O)Nc3ccccc3)cc2)CC1	.	0%	.	1%	1%	-12%	5%	?
CCOc1cc(-c2ccc3c(c2)OCO3)cc(=O)c2c(C)oc(C)c12	-4.9%	3%	-16%	-6%	0%	.	.	.
CCOc1ccc(Nc2nnc(Cc3ccc(OC)cc3)c(=O)[nH]2)cc1	.	.	.	3%[46.1 µM]	-3%	-4%	10%	-18%
NNc1nc(-c2ccccc2)cc(-c2ccccc2)n1	.	23%	.	.	-3%	-5%	9%	.
Cc1cc(C)c(NC(=O)CSc2nc(C)cc(C)c2C#N)c(C)c1	1.1%	.	-13%	1%[46.1 µM]	.	-12%	.	3%[46.1 µM]
COc1ccc(C(=O)c2cc3c(cc2[N+](=O)[O-])OCCO3)cc1	.	2%	.	?	0%	14%	-9%	.
O=C(N/N=C/c1cccs1)c1ccc2ncccc2c1	.	-7%	.	-7%[46.1 µM]	0%	19%	4%	-14%[46.1 µM]
COc1ccc(C(=O)NC(C)c2nnc(SCC(=O)Nc3nc(C)cs3)n2C)cc1 (stereo not given)	-2.0%	1%	8%	-2%	6%	-3%	13%	-14%[14.3 µM]
O=C(CC(CC(=O)c1ccccc1)c1ccccn1)c1ccccc1	.	.	.	?	.	7%	-3%	?
CC1=CC(C)(C)N2C(=O)C3(C(C#N)=C(N)Oc4cc(O)ccc43)c3c(C)c(C)cc1c32 (stereo not given)	-10%	21%	?	-4%	2%	-27%	8%	-25%
c1ccc2sc(NC3=NCN(CCN4CCOCC4)CN3)nc2c1	.	1%	.	?	-1%	0%	-11%	-4%
Cc1ccc(CNS(=O)(=O)c2ccc(-n3cnnn3)c(C)c2)cc1	.	-3%	.	-11%[46.1 µM]	4%	6%	0%	.
Fc1ccc(N/N=C(/c2ccccc2)c2ccccn2)cc1	-9.7%	2%	4%	5%	?	1%	1%	9%
COc1ccc(O)c(C2=Nc3ccccc3N=C(c3ccco3)C2)c1	-9.8%	-28%	-9%	-2%	-5%	-9%	3%	6%
C(=N\Nc1nc(-c2ccccc2)cs1)/c1cccs1	-5.6%	?	25µM*	?	?	11%	-13%	?
CC(NC(=O)C1CCCCC1)c1ccc2c(c1)OCCO2 (stereo not given)	2.0%	-1%	4%	2%	-4%	1%	-13%	13%
COc1ccc(Cc2noc(CN3CCNC(=O)CC3)n2)cc1OC	.	-4%	.	-19%[46.1 µM]	1%	-5%	-1%	3%
CCn1c(C)c(C)c2cc(C(=O)Nc3cccc(Cl)c3)ccc21	-6.2%	17%	?	?	-14%	1%	-7%	-21%
O=C(CC1C(=O)NCCN1C(=O)c1ccc(F)cc1)OCc1ccccc1 (stereo not given)	4.2%	-9%	13%	2%	-1%	18%	-1%	-14%
CCOc1ccccc1NC(=O)COC(=O)c1cccc(-c2ccc(OC(C)=O)cc2)c1	-4.5%	3%	-8%	?	10%	-22%	7%	-22%
Cc1ccc(S(=O)(=O)CCC(=O)NCc2ccccc2)cc1	-0.7%	2%	-2%	-28%	8%	-16%	0%	33%
COc1ccc(CCNS(=O)(=O)c2cccs2)cc1	5.0%	-5%	2%	5%[46.1 µM]	-7%	71%[activator]	10%	1%
COc1ccc(CNC(=O)CN2CCC(C(=O)c3ccc(OC)cc3)CC2)cc1	-1.4%	0%	4%	-20%	0%	?	-14%	?
CC1CN(C(=S)SCCN2Cc3ccccc3C2=O)CC(C)O1 (stereo not given)	-1.5%	11%	5%	?	22%	11%	-3%	38%
CC1CC(C)(C)CC2(C1)NC(=O)N(CC(=O)N(C)Cc1nc3ccccc3c(=O)[nH]1)C2=O (stereo not given)	.	.	.	3%	-12%	-16%	-19%	?
O=C(NCc1cccnc1)c1cccc(S(=O)(=O)Nc2cccc(Cl)c2)c1	.	.	.	?	1%	12%	14%	-18%
Cc1cc2c(=O)n(C)c(SCC(=O)Nc3cccc(F)c3)nc2s1	.	-55%	.	2%[46.1 µM]	0%	-16%	16%	7%[46.1 µM]
CS(=O)(=O)Nc1ccc(C(=O)NCCSC2CCCCC2)cc1	-0.2%	-6%	8%	8%	2%	0%	-7%	-24%
CC(=C1C(=O)c2ccccc2C1=O)N1CCN(c2ccccn2)CC1	6.9%	-17%	-7%	-3%	-5%	-14%	-19%	-4%
CC(C)(C)C1CCc2c(sc(NC(=O)Cn3nnc(-c4ccccc4F)n3)c2C#N)C1 (stereo not given)	-0.7%	.	-9%	-2%[46.1 µM]	.	-24%	.	-2%[46.1 µM]
CCCCSc1ncc(C(=O)OCC)c(N)n1	-3.6%	-9%	2%	?	0%	-12%	-10%	?
O=C1CC(c2cccc(Cl)c2)CC(O)=C1C=NCCCO (stereo not given)	-2.6%	-3%	5%	?	0%	0%	3%	-2%
Cc1nn(-c2cccc(Cl)c2)c(Cl)c1/C=N/NC(=O)c1cccnc1	-4.0%	-11%	29%	-12%	-5%	7%	1%	3%
COC(=O)Cc1ccc(NC(=S)NC(C)(C)C)cc1	.	-2%	.	2%[14.2 µM]	0%	28%	-6%	3%
CCc1c(C)nc2ncnn2c1Nc1ccc(C)cc1	.	10%	.	?	-7%	-24%	0%	-1%
